# Screening data as filed in PubChem BioAssay.
# PABP FP inh: PABP poly(A) RNA binding inhibitors, primary screen, biochemical, fluorescence polarization, uHTS; Polyadenylate-binding protein 1 (Homo sapiens), P11940; inhibition, % at 35 µM; hit rate 1% among 290,000;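 active means 50% or more with normal probe brightness, or confirmed in later tests; about a fifth of its hits are not listed in these tables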;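 further: calls also rest on retests at 20 µM and on dose response follow-up; controls were probe without protein and protein plus probe with vehicle; some compounds called inactive have numbers as strong as hits; many hits fall short of the cut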
# Target sequence (P11940 whole entry, looked up): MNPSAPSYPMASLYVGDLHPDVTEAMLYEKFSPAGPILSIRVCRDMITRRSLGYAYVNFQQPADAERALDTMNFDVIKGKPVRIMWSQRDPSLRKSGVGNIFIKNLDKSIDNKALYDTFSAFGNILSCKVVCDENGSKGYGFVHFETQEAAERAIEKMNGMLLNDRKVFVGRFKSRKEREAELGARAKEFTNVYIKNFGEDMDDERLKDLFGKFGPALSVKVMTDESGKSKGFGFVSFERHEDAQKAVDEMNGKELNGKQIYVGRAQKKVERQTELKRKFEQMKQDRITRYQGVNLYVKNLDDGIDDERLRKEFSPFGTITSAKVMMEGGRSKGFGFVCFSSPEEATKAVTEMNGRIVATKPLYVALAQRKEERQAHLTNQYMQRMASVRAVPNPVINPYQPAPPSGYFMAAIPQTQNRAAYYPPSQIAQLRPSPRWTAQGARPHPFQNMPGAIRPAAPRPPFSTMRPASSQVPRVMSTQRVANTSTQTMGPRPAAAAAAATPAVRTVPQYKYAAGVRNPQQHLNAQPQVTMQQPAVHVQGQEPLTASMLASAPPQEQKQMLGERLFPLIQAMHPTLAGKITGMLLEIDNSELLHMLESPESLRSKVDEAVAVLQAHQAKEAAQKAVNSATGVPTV
# eIF4H inh: human eIF4H binding inhibitors, primary screen, translation initiation inhibitor project, biochemical, uHTS, fluorescence polarization; Eukaryotic translation initiation factor 4H (Homo sapiens), Q15056; eIF4H fluorescence polarization binding assay; inhibition, % at 35 µM; hit rate 0.94% among 290,000; AID 2012, 2009;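 active means 50% or more with normal probe brightness, or confirmed in later tests; about a fifth of its hits are not listed in these tables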;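 further: calls also rest on retests at 20 µM and on dose response follow-up; 0% = protein and probe with vehicle and 100% = probe without protein; strong numbers were not always called active; many hits fall short of the cut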
# Rce1 inh: yeast Rce1p protease inhibitors, primary screen, biochemical, fluorescence, cell-free homogeneous | yeast membranes, quenched prenylated peptide cleavage fluorescence | calls only | hit rate 0.27% among 290,000 | AID 2563, 2010;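 active means fall in fluorescence gain of 50% or more versus controls, with final raw signal at or below 3038400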;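 further: plate controls were neutral control wells for no effect and wells lacking membranes for full effect; tested at 10 µM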
# CSC inhib: cancer stem cell viability inhibitors, primary screen, luminescence. inhibition, % at 7.5 µM. hit rate 1.1% among 300,000. cancer stem cell-like cells viability;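 active means mean at 75% or more and at least half the replicates too; tested in HMLE shEcad cells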;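 further: 0% = median of negative and 100% = median of positive control wells; the first replicate is given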
# MT1-MMP act inh: blockers of MT1-MMP proenzyme processing, primary screen, HT1080 RFP-PRO-GFP cells, GFP/RFP fluorescence; Matrix metalloproteinase-14 (Homo sapiens), P50281; GFP/RFP ratio fluorescence, overnight; percent of plate control window, DMSO zero; GFP/RFP ratio change, % at 20 µM; hit rate 0.061% among 360,000; AID 651647, 2012;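 active means GFP/RFP ratio change of at least 30% with cell ATP level not reduced by more than half and red fluorescence within 50% of control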; further: strong numbers were not always called active
#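 Assay system: RFP-PRO-GFP reporter HT1080 cells; read-out basis: GFP/RFP fluorescence ratio; benchmarks: DMSO wells and RFP-L50D-GFP cells; doses: 20 µM single dose, 1% DMSO; schedule: overnight cell settling, then overnight compound exposure, 37 °C, 5% CO2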
# HIV Env fusion: inhibitors of HIV-1 Env-driven cell-cell fusion, primary screen, HeLa-JRFL effector, CEM21 target cells, luciferase; hit rate 1.1% among 360,000; inhibition, % at 12.3 µM; AID 651610, 2012;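 active means mean replicate inhibition score of at least 50 and every replicate individually at or above 50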;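 further: 0% = plate neutral controls and 100% = maraviroc near 300 nM; one replicate is shown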
# UUG fidelity: modulators of yeast start codon fidelity, primary screen, whole organism, S. cerevisiae, single point, plate reader; AID 602363, 2012; activity score, % at 18.7 µM; S. cerevisiae UUG-firefly luciferase reporter, luminescence/redox ratio; hit rate 0.13% among 350,000;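 active means replicate mean at a twofold rise or more, about +100% in these data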;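 further: firefly luciferase made from a UUG start codon reports start codon fidelity; reporter light over untreated wells divided by growth signal over untreated wells; some hits fall short of that in this replicate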
# eIF4H inh retest: further read-out of eIF4H inh, marked with its call; inhibition, %; compound at 20 µM; confirmation average;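 mean of two retest wells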
# PABP FP inh retest: also measured in PABP FP inh; calls as there; inhibition, %; compound at 20 µM; confirmation repeats;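 mean of two retest wells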
# MT1-MMP act inh RFP: also measured in MT1-MMP act inh; calls as there; RFP signal change, %; measured here: RFP expression control read;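 0 = vehicle wells; hits needed this value within 50% of zero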
# * hit, by the source's call; i = inactive; nt = not tested or not shown. This is a subset; count on the stated rates, not on these rows.
SMILES,PABP FP inh,eIF4H inh,Rce1 inh,CSC inhib,MT1-MMP act inh,MT1-MMP act inh RFP,HIV Env fusion,UUG fidelity,others
O=C(O)C1=CC[C@@H](c2ccc(Cl)cc2)N(S(=O)(=O)c2ccc(Cl)cc2)C1,nt,nt,nt,-4.9,-1.1,0.6,-35.8,-12.8,
COC(=O)c1scc2c(=O)cc(C(F)(F)F)[nH]c12,35.6,48.4,i,-13.0,-7.2,7.4,1.9,-14.4,
Clc1nc(CN2CCCCC2)nc2sc3c(c12)CCCC3,2.3,-6.3,i,-5.1,-3.2,-4.7,14.1,nt,
Cc1cccc(C(=O)NCCNC(=O)c2cnccn2)c1,4.5,-2.9,i,nt,2.9,5.5,7.2,5.1,
NS(=O)(=O)c1cccc(NC(=O)CCCNC(=O)c2ccc(Cl)cc2)c1,0.6,103.9,i,-7.6,-0.4,0.2,9.9,-0.9,eIF4H inh retest=-5.2;PABP FP inh retest=8.7
CCOC(=O)c1nc2sc3c(c2c(=O)n1C(C)C(=O)OCC)CCCC3 (configuration not stated),9.1,-4.3,i,10.3,-2.7,-1.3,26.1,-6.4,
Cc1cc(C)c(S(=O)(=O)Cc2ccc(Cl)cc2)c(=O)[nH]1,4.9,-2.4,i,-18.0,-0.3,-1.4,-26.5,nt,
CCOC(=O)C1C(=O)CC(C)(O)C(C(=O)OCC)C1c1ccc2c(c1)OCO2 (configuration not stated),nt,nt,i,nt,-3.8,4.0,20.2,-26.8,
O=C(NNC(=O)c1ccccc1Cl)c1ccc(-n2cncn2)c([N+](=O)[O-])c1,nt,nt,nt,-16.1,5.9,2.2,-8.6,-0.5,
CCc1ccc(NC(=O)c2cc(-c3ccc(OC)cc3)on2)cc1,3.8,-1.1,i,-15.3,1.6,-2.7,nt,-9.6,

# Next part, overlapping the part above by 3 compounds.
SMILES,PABP FP inh,eIF4H inh,Rce1 inh,CSC inhib,MT1-MMP act inh,MT1-MMP act inh RFP,HIV Env fusion,UUG fidelity,others
CCOC(=O)C1C(=O)CC(C)(O)C(C(=O)OCC)C1c1ccc2c(c1)OCO2 (configuration not stated),nt,nt,i,nt,-3.8,4.0,20.2,-26.8,
O=C(NNC(=O)c1ccccc1Cl)c1ccc(-n2cncn2)c([N+](=O)[O-])c1,nt,nt,nt,-16.1,5.9,2.2,-8.6,-0.5,
CCc1ccc(NC(=O)c2cc(-c3ccc(OC)cc3)on2)cc1,3.8,-1.1,i,-15.3,1.6,-2.7,nt,-9.6,
Cc1ccc(C)c(N2CCN(Cc3nnnn3C3CCCCC3)CC2)c1,-0.9,-10.5,i,-1.3,-1.1,-2.1,nt,-11.4,
CC1=NN(C(=O)CSCc2ccccc2)C(O)(c2ccccc2)C1 (configuration not stated),-9.0,-2.7,i,-16.9,0.1,-3.3,12.9,nt,
Cc1ccc(CNC(=O)CCCNC(=O)c2ccc(Cl)cc2)n1C,8.8,0.1,i,-11.3,-0.9,2.8,-13.8,12.8,
N=c1occ(C(=O)c2cc(F)ccc2O)cc1C(=O)NC1CCCCC1,-1.6,3.6,i,8.6,-4.9,-3.8,-2.7,nt,
Nc1cc(=O)[nH]c(SCC(=O)Nc2ccc(Br)cc2)n1,-3.9,-4.5,i,18.5,3.7,7.9,nt,2.2,
COc1ccc(CCC(=O)NC2CCC(C)CC2)cc1 (configuration not stated),-2.7,-0.3,i,-14.3,-1.4,-2.4,1.9,-21.7,
COc1ccc(N2CC(C(=O)NCc3nnnn3-c3ccc(C)c(C)c3)CC2=O)cc1 (configuration not stated),14.1,-8.4,i,-31.3,0.9,1.4,-2.1,nt,
COc1ccc(-n2nc(C(=O)NCC(=O)NCCN(C)C)c3ccccc3c2=O)cc1,0.1,-8.0,i,-9.7,2.4,1.2,5.6,-32.4,
Cc1cc(C)n(CC(O)COc2ccccc2[N+](=O)[O-])n1 (configuration not stated),16.7,-3.9,i,-13.5,-4.6,-0.7,-47.1,nt,
COc1ccc(Cn2nnc3c(=O)[nH]c(C4CCCN(C(=O)c5ccccc5)C4)nc32)cc1 (configuration not stated),-1.6,-4.1,i,-7.7,nt,nt,4.5,-5.2,
CC(=O)NC(Cc1ccc(F)cc1)C(=O)O (configuration not stated),-2.0,-3.7,i,3.1,5.0,3.7,-46.0,-15.7,
O=C(NNC(=O)c1ccc[nH]1)Nc1cc(Cl)cc(Cl)c1,8.3,11.3,i,1.5,0.4,-2.1,11.4,-8.8,
CNC(=O)c1ccccc1NC(=O)c1cccc(S(=O)(=O)N2CCCCC2)c1,-0.8,-1.4,i,-14.4,-0.7,4.1,10.7,188.3*,
COc1ccc(C=C2SC(=S)NC2=O)cc1,nt,nt,nt,nt,-2.9,5.9,-28.4,-16.2,
COc1ccccc1C(=O)OCC(=O)NCCNC(=O)COC(=O)c1ccccc1OC,9.9,-10.3,i,0.1,-1.1,-0.7,4.3,9.6,
COc1cc(-c2nc3n(n2)C(c2ccc(F)cc2)C2=C(CCCC2=O)N3)cc(OC)c1OC (configuration not stated),-5.0,0.4,i,-9.0,7.5,-6.8,-15.0,-26.8,
COc1ccccc1NC(c1cccnc1)c1ccc2cccnc2c1O (configuration not stated),10.5,9.1,i,40.1,4.1,-0.8,-30.8,-5.8,
COc1ccc(CCNC(=O)C2CCCN(S(=O)(=O)c3ccc(F)cc3)C2)cc1OC (configuration not stated),12.6,-3.5,i,-3.4,0.1,-1.1,nt,-8.9,
CCOc1ccccc1C(=O)NCC(=O)NCC(c1ccco1)N1CCCCC1 (configuration not stated),nt,nt,i,-4.2,-1.3,-1.0,-2.6,0.7,
Cc1cccc(OCC(=O)Nc2nnn(C)n2)c1C,0.1,3.2,i,-9.2,2.2,2.9,nt,-14.1,
CC(C)OP(=O)(OC(C)C)C(Nc1ccc(C(=O)O)cc1)c1ccccc1 (configuration not stated),-1.4,2.9,i,-24.1,-5.8,5.4,6.3,nt,
O=C(CC(=O)N/N=C\c1cccc(Cl)c1Cl)NCc1ccccc1,9.4,-7.1,i,-18.0,4.7,-12.1,nt,-21.7,
CC(=O)NCCC(=O)Nc1nc2ccc(Oc3ccccc3)cc2s1,-5.2,-3.6,i,-17.0,2.6,-0.2,-20.7,nt,
COc1cccc(-c2cc(C(=O)N3CCc4ccccc4C3)no2)c1,1.5,-0.9,i,-4.5,3.3,3.9,-32.8,-12.5,
CCCC(=O)N1CCN(c2ccc([N+](=O)[O-])c(NC(C)c3ccccc3)c2)CC1 (configuration not stated),-3.2,-14.5,i,-1.0,2.1,-10.2,44.5,-9.3,
CC(=O)Nc1sc(C)c(C)c1C(=O)OCC(=O)N(CC(C)C)C1CCS(=O)(=O)C1 (configuration not stated),-3.9,-5.0,i,-12.9,-0.7,3.2,12.4,13.5,
Cc1cccc(C)c1NC(=O)C(c1ccccc1)N(C)CCc1ccccc1 (configuration not stated),nt,nt,nt,nt,-5.1,-1.6,-0.7,-3.5,
COc1ccc(-c2ccc(=O)n(CC(=O)Nc3ccc4c(c3)OCCO4)n2)cc1,0.4,1.1,i,-2.9,1.4,2.0,12.9,-7.0,
CCOc1nc2cnccc2n(CC(=O)Nc2cccc(C)c2C)c1=O,0.0,-3.6,i,-2.6,2.0,5.1,-15.8,-6.1,
OC(COc1c(F)cc(Br)cc1F)CN1CCOCC1 (configuration not stated),4.4,4.4,i,-5.9,-2.8,-1.1,8.1,-11.1,
COC(=O)c1cc(C(=O)Nc2cc(C)ccn2)cc([N+](=O)[O-])c1,0.9,4.4,i,nt,-3.3,-5.9,nt,nt,
CC(=O)/C=C(\C)N=Nc1c(O)[nH]c2ccccc12,2.2,-9.7,i,-8.9,0.7,1.0,-45.2,-8.1,
CC(Sc1nnc(-c2cccnc2)n1C)C(=O)N1CCOCC1 (configuration not stated),nt,nt,i,-0.2,0.4,3.8,-2.9,-16.0,
CC(=O)c1ccc(OCC(C)C)c(CC(C(N)=O)C(N)=O)c1,-3.6,-5.9,i,nt,1.6,3.0,nt,nt,
Cc1[nH][nH]c(=O)c1N=Nc1ccccc1Cl,-8.9,-0.9,i,12.4,3.4,1.0,22.0,nt,
COc1ccc(C(=O)NC(=S)NNC(=O)c2cnccn2)cc1,0.6,8.8,i,88.2*,1.5,-2.8,nt,-23.2,
CC(C)(C)NC(=O)/C(=C/c1ccccc1F)NC(=O)c1ccc([N+](=O)[O-])cc1,11.0,11.8,i,5.8,-2.1,-2.0,1.2,nt,
COc1ccc(C(=O)Nc2cc(Cl)ccc2Cl)c(OC)n1,-2.2,-6.4,i,-15.0,-1.0,1.1,nt,nt,
CC(=O)N1N=C(c2c(-c3ccccc3)c3cc(Br)ccc3[nH]c2=O)CC1c1ccco1 (configuration not stated),10.6,0.8,i,-0.5,-17.1,-14.4,13.9,3.7,
Cc1c(CNC(=O)c2c([N+](=O)[O-])cnn2C)cnn1C,-8.0,-6.7,i,-9.2,0.5,-2.4,-1.9,-14.4,
COc1ccc(CCNC(=O)Cc2ccc([N+](=O)[O-])cc2)cc1OC,0.6,-4.5,nt,-4.2,-1.1,-1.0,0.1,nt,
O=C1NCC(O)=C1C=NCCO,-6.0,-3.8,i,-3.1,3.3,5.7,nt,-8.7,
CN1CC[n+]2cnc3ccccc3c21,nt,nt,nt,-14.3,-2.7,2.8,28.7,-12.1,
COc1ccc(S(=O)(=O)N2CCN(c3cc(-c4ccccc4)nc4ncnn34)CC2)cc1,-6.2,-0.2,i,2.7,-2.7,-13.9,nt,-18.1,
COC(=O)Cn1c(CN2CCOCC2)nc2c1c(=O)[nH]c(=O)n2C,9.4,7.7,i,5.5,1.2,5.3,-10.1,-28.7,
Cc1sc(NC(=O)C2=COCCO2)nc1-c1ccc(Cl)cc1,nt,nt,i,nt,0.3,-8.6,-10.0,-23.4,
COc1cc(NC(=O)c2ccc(C(C)(C)C)cc2)c(OC)cc1NC(=O)CN1CCCCC1,-4.3,-3.0,i,-9.2,-2.3,-13.5,23.8,-18.5,
CC1CCc2c(sc3nc(CSc4ncn[nH]4)[nH]c(=O)c23)C1 (configuration not stated),2.6,-15.7,i,-0.9,2.6,-3.8,-27.8,nt,
CCn1c(C)c(C)c2cc(C(=O)N3CCN(c4cccc(C)c4C)CC3)ccc21,-2.7,-5.0,i,119.6*,-3.5,1.1,25.6,-18.0,
CN(CCc1ccccn1)C(=O)Nc1cccc(Cl)c1,-8.3,-5.5,i,-4.8,5.9,5.0,-8.1,1.1,
# Next entries follow.
SMILES,PABP FP inh,eIF4H inh,Rce1 inh,CSC inhib,MT1-MMP act inh,MT1-MMP act inh RFP,HIV Env fusion,UUG fidelity,others
COc1ccc(CNC(=O)N2CCN(C(=O)c3ccccc3)CC2)cc1,nt,nt,nt,nt,3.9,4.1,-10.5,-11.6,
COCCNC(=O)CN1CCN(S(=O)(=O)c2ccc3c(c2)CCCC3)CC1,nt,nt,nt,-7.8,0.5,-4.1,nt,-18.9,
Cc1cc(C)cc(NC(=O)COC(=O)CCCNC(=O)c2ccc(Cl)cc2)c1,-1.5,-6.1,i,2.8,1.2,3.9,5.9,nt,
CN1OC(COC(=O)c2ccccc2)CC1c1ccccc1 (configuration not stated),-0.7,3.7,i,-11.8,0.3,-2.7,-2.0,17.8,
Cc1ccc(C2=NC3(CCCCC3)NC2=S)cc1,4.8,-0.3,i,-5.0,1.0,1.4,nt,nt,
O=C(CCc1ccccc1)NNC(=O)c1ccc(NC(=O)c2ccccc2)cc1,7.4,-17.6,i,-8.4,-2.1,-1.7,nt,nt,
